Beta2AR agonist – human beta-2 adrenergic receptor agonism by FAP; P07550; Am2.2-beta2AR cells, FAP receptor internalization, flow cytometry; reference of the scale not given here; response, % (no concentration beside the values); 340,000 compounds, 0.43% hits; AID 504454;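 active = response above a set limit, near 3 SD of response in nonfluorescent compounds, cut at about 42% in these data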;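 note: stock transfer was 100 nL into about 11 µL; a reference agonist was the positive control; negative values mostly stem from fluorescent compounds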
rRNA inh HTS – inhibits bacterial ribosomal RNA function over humanized ribosomes; E. coli WT GFP vs humanized-ribosome RFP mutants, fluorescence, 24 h; stronger effect = lower value; DMSO median 0, no signal -100; GFP signal change (wild-type ribosome), % (concentration not given with the values); 350,000 compounds, 1.6% hits; AID 720706;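 active = significant combined selectivity score with lowered wild-type GFP, culture density cut under 30%, mutant RFP and density less affected; inactive = any of these conditions unmet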; note: one replicate is shown; some compounds called inactive have numbers as strong as hits
UCH37 inh – human UCH37 deubiquitinating enzyme inhibition | purified proteasome/UCH37, Ub-AMC cleavage fluorescence | inhibition, % (test concentration not listed) | 330,000 compounds, 0.33% hits | AID 588478;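 active = mean of two replicates above 20%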;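 note: 0% = compound-free wells with enzyme and 100% = wells lacking proteasome; stock transfer was 100 nL into about 20 µL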
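Assay system: Proteasome-bound UCH37. Buffer or medium: pH 7.4 Tris-HCl (50 mM) with ovalbumin, ATP-MgCl2, DTT. Incubation: 30 min preincubation with enzyme, 25 min cleavage at room temperature. Measured by: fluorescence, ex 355 nm, em 460 nm. Read-out basis: percent inhibition. Control set: wells without proteasome as full block, compound-free enzyme plus substrate as uninhibited.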
HNF4A DNA FP – change in binding of human HNF4 alpha to DNA | P41235 | HNF4a-FITC DNA binding, fluorescence polarization, 1 h | activity change, % at 10 µM | 360,000 compounds, 0.3% hits | AID 1224865; in the data active = activity change above about 30%, passing the limit was not always enough;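 note: controls were the assay level and a saturating level of protein; the project sought stronger binding though the title names inhibitors; some compounds called inactive have numbers as strong as hits; positive values seem to mean higher polarization but the record does not say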
Target sequence (P41235 whole entry, looked up): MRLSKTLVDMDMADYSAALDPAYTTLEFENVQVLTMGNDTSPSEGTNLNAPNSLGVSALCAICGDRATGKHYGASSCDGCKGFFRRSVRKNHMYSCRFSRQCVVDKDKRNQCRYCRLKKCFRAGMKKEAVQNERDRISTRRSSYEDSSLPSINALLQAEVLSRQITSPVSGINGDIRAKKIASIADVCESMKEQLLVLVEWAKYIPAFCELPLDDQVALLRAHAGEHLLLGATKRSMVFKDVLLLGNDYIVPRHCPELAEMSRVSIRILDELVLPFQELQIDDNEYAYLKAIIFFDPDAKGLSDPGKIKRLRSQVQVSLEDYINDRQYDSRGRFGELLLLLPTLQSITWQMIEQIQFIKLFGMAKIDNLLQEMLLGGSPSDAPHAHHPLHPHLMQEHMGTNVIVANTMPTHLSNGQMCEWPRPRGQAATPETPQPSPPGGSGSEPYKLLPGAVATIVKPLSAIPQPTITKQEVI
ALR H2O2 inh – human ALR oxidase inhibition via reduced H2O2 | P55789 | purified ALR, DTT oxidation, H2O2 HRP-luminol luminescence | inhibition, % (test concentration not listed) | 290,000 compounds, 3.8% hits;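 active = mean and each replicate at 75% or more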;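 note: stock transfer was 7.5 nL into about 7.5 µL; 0% = neutral wells and 100% = wells with inactivated enzyme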
Target sequence (P55789 whole entry, looked up): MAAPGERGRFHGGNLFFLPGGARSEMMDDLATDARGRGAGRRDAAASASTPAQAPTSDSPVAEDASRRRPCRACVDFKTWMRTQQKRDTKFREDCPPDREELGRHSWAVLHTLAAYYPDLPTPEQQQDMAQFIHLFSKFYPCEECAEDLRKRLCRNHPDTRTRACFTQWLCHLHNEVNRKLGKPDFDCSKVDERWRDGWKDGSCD
Ecoli growth – inhibitors of Escherichia coli growth; OD600, 23 h; stronger effect = lower value; OD600 absorbance (test concentration not listed); 330,000 compounds, 0.21% hits; AID 1053175;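 active = OD600 absorbance below the run mean of sample wells minus 3.6 SD, in any replicate, cut at about 0.56 in these data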;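 note: stock transfer was 300 nL into about 60 µL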
FGF22 binding – binders of recombinant human FGF22 by thermal shift | SYPRO orange fluorescence; percent of sucrose octasulfate shift, DMSO zero | calls only at 9.99 µM | 340,000 compounds, 1.5% hits | AID 651658;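 active = melting point raised past a set limit in the mean and every replicate; three in four hits are not shown here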
Target sequence (Q9HCT0 whole entry, looked up): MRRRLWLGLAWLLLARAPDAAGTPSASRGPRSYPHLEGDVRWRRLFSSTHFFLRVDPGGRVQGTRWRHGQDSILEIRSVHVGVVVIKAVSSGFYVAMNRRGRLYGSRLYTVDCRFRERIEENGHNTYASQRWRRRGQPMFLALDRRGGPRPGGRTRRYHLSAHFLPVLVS
rRNA inh HTS OD600 – recorded beside rRNA inh HTS, whose call it bears; OD600 change, %; measured here: OD600 growth;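 optical density of the mix in the first replicate; 0 = DMSO median and -100 = no signal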
rRNA inh HTS RFP – second read-out of rRNA inh HTS, no call of its own (marks repeat the call); RFP signal change, %; measured here: RFP humanized mutant strains;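 first replicate; 0 = DMSO median and -100 = no signal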
Starred values were filed as active, the others as inactive. Only part of the results is shown (hit frequency here may not be typical).

Screening COC(=O)c1ccc(C)c(NC(=O)Cc2coc3cc(OC)ccc23)c1 returned Beta2AR agonist 0.8, rRNA inh HTS -17.4, UCH37 inh 0.7, HNF4A DNA FP -1.1, ALR H2O2 inh 0.6, Ecoli growth 0.683, FGF22 binding inactive, rRNA inh HTS OD600 -16.6 and rRNA inh HTS RFP -0.8.
Screening O=C(O)c1nc(-c2ccccc2)n(-c2ccc(Cl)cc2)n1 returned Beta2AR agonist 0.9, UCH37 inh -0.2, HNF4A DNA FP -2.9, ALR H2O2 inh 2.7 and Ecoli growth 0.733.
`C/C(=N\N1CCN(Cc2ccc(Cl)cc2)CC1)c1ccc([N+](=O)[O-])cc1` gave Beta2AR agonist 2.2, rRNA inh HTS 0.6, HNF4A DNA FP -0.9, ALR H2O2 inh -4.2, FGF22 binding inactive, rRNA inh HTS OD600 15.1 and rRNA inh HTS RFP 1.9.
For Cc1ccc(C)c(S(=O)(=O)N2CCN(C(=O)[C@H](C)N3C(=O)C4CC=CCC4C3=O)CC2)c1 (stereo partly specified) the results were Beta2AR agonist 3.5, UCH37 inh -3.2, HNF4A DNA FP -0.2, ALR H2O2 inh -1.3, Ecoli growth 0.701 and FGF22 binding inactive.
Screening COc1cc(/C=C(\C#N)C(=O)NCC2CCCO2)ccc1OCC(=O)O (stereo unspecified) returned Beta2AR agonist -4.1, rRNA inh HTS 16.4, UCH37 inh 5.3, HNF4A DNA FP 1.5, ALR H2O2 inh 1.6, Ecoli growth 0.723, FGF22 binding inactive, rRNA inh HTS OD600 2.6 and rRNA inh HTS RFP 7.3.
`COc1cc2c(C#CCO)c(-c3ccc(C#N)cc3)oc(=O)c2cc1OC` gave Beta2AR agonist 0.2, UCH37 inh -16.3, HNF4A DNA FP 1.6, ALR H2O2 inh -7.9, Ecoli growth 0.699 and FGF22 binding inactive.
Screening O=C(Cc1cccs1)N1CCN(c2ccc([N+](=O)[O-])cc2)CC1 returned Beta2AR agonist 14.6, rRNA inh HTS 2.3, UCH37 inh 8.2, HNF4A DNA FP 4.0, Ecoli growth 0.662, FGF22 binding inactive, rRNA inh HTS OD600 -2.7 and rRNA inh HTS RFP 6.6.
For COc1cc(-c2cn(S(=O)(=O)c3cccc4nsnc34)nc2N)cc(OC)c1OC the results were Beta2AR agonist -0.9, UCH37 inh 1.9, HNF4A DNA FP -0.4, ALR H2O2 inh 14.2 and Ecoli growth 0.64.
Screening N#CC(C(N)=O)=C1CCCCC1 returned Beta2AR agonist 0.3, rRNA inh HTS 21.1, UCH37 inh 5.3, HNF4A DNA FP -4.5, ALR H2O2 inh -0.6, Ecoli growth 0.713, FGF22 binding inactive, rRNA inh HTS OD600 6.5 and rRNA inh HTS RFP 1.5.
CC[C@]12c3[nH]c4ccc(OC)cc4c3CCN1C(=O)C(CC(=O)NCCN1CCOCC1)C[C@@H]2C(=O)N1CCN(C(=O)c2ccco2)CC1 (stereo partly specified) was read as Beta2AR agonist 3.9, rRNA inh HTS 3.3, UCH37 inh -1.9, HNF4A DNA FP 3.1, Ecoli growth 0.672, FGF22 binding inactive, rRNA inh HTS OD600 8.0 and rRNA inh HTS RFP -3.7.
For O=[N+]([O-])c1ccc(NN=Cc2ccco2)nc1 the results were Beta2AR agonist -0.2, rRNA inh HTS 9.9, UCH37 inh 6.0, HNF4A DNA FP 0.3, Ecoli growth 0.659, FGF22 binding inactive, rRNA inh HTS OD600 19.9 and rRNA inh HTS RFP 3.0.
For O=[N+]([O-])c1cccc2cn[nH]c12 the results were Beta2AR agonist -1.5, UCH37 inh 3.1, HNF4A DNA FP 1.9, ALR H2O2 inh -5.0, Ecoli growth 0.667 and FGF22 binding inactive.

Sorted by length of the SMILES (descending): part of the list above
`C/C(=N\N1CCN(Cc2ccc(Cl)cc2)CC1)c1ccc([N+](=O)[O-])cc1` gave Beta2AR agonist 2.2, rRNA inh HTS 0.6, HNF4A DNA FP -0.9, ALR H2O2 inh -4.2, FGF22 binding inactive, rRNA inh HTS OD600 15.1 and rRNA inh HTS RFP 1.9.
For COc1cc(-c2cn(S(=O)(=O)c3cccc4nsnc34)nc2N)cc(OC)c1OC the results were Beta2AR agonist -0.9, UCH37 inh 1.9, HNF4A DNA FP -0.4, ALR H2O2 inh 14.2 and Ecoli growth 0.64.
Screening COC(=O)c1ccc(C)c(NC(=O)Cc2coc3cc(OC)ccc23)c1 returned Beta2AR agonist 0.8, rRNA inh HTS -17.4, UCH37 inh 0.7, HNF4A DNA FP -1.1, ALR H2O2 inh 0.6, Ecoli growth 0.683, FGF22 binding inactive, rRNA inh HTS OD600 -16.6 and rRNA inh HTS RFP -0.8.
For O=[N+]([O-])c1ccc(NN=Cc2ccco2)nc1 the results were Beta2AR agonist -0.2, rRNA inh HTS 9.9, UCH37 inh 6.0, HNF4A DNA FP 0.3, Ecoli growth 0.659, FGF22 binding inactive, rRNA inh HTS OD600 19.9 and rRNA inh HTS RFP 3.0.

Carrying on.
Cc1ccc(S(=O)(=O)N2CCOCC2)cc1C(=O)NCc1ccccc1CN1CCCC1 was read as Beta2AR agonist 0.6, rRNA inh HTS -4.8, UCH37 inh -0.1, HNF4A DNA FP 0.5, ALR H2O2 inh -4.1, Ecoli growth 0.691, FGF22 binding inactive, rRNA inh HTS OD600 -2.2 and rRNA inh HTS RFP 0.5.
For COc1cc(CNn2c(C)n[nH]c2=S)cc(Br)c1OCC(=O)NC(C)(C)C the results were Beta2AR agonist 11.5, rRNA inh HTS -20.9, UCH37 inh -3.2, HNF4A DNA FP -1.1, Ecoli growth 0.649, FGF22 binding inactive, rRNA inh HTS OD600 -17.6 and rRNA inh HTS RFP -6.2.
Screening O=C(NCc1cccc(Cl)c1)c1ccc(S(=O)(=O)N2CCCCC2)cc1 returned rRNA inh HTS 1.2, HNF4A DNA FP 2.5, FGF22 binding inactive, rRNA inh HTS OD600 -2.6 and rRNA inh HTS RFP -0.6.
`CC(C)Cn1cc(C(=O)NCC2CCCO2)c2c3ccccc3n(C)c2c1=O` (stereo unspecified) gave Beta2AR agonist -0.9, UCH37 inh -107.2, HNF4A DNA FP -1.5, ALR H2O2 inh -6.4 and Ecoli growth 0.673.
CCCCN(C(=O)C1CCCC1)c1c(N)n(CCC)c(=O)[nH]c1=O was read as Beta2AR agonist -2.4, rRNA inh HTS 5.2, UCH37 inh -1.4, HNF4A DNA FP -4.0, Ecoli growth 0.668, FGF22 binding inactive, rRNA inh HTS OD600 8.2 and rRNA inh HTS RFP -1.7.
`Cc1ccc([C@H]2N[C@]3(CCCN(CC4CCCCC4)C3=O)[C@H]3C(=O)N(C)C(=O)[C@@H]23)cc1` gave rRNA inh HTS -2.6, HNF4A DNA FP 1.9, FGF22 binding inactive, rRNA inh HTS OD600 3.2 and rRNA inh HTS RFP -4.7.
For Cc1[nH]c(C(=O)O)c(C#N)c1C(=O)c1ccccc1 the results were Beta2AR agonist -3.9, rRNA inh HTS 0.4, UCH37 inh 2.6, HNF4A DNA FP -2.2, ALR H2O2 inh -3.2, Ecoli growth 0.705, FGF22 binding inactive, rRNA inh HTS OD600 4.0 and rRNA inh HTS RFP -1.3.
CCOC(=O)N1CCN(C(=O)Cn2ncc3ccccc32)CC1 was read as Beta2AR agonist -16.8, rRNA inh HTS 6.4, UCH37 inh 4.9, HNF4A DNA FP -3.4, ALR H2O2 inh 39.9, Ecoli growth 0.743, FGF22 binding inactive, rRNA inh HTS OD600 -3.6 and rRNA inh HTS RFP -4.2.
Screening CNC(=O)c1sccc1SCc1ccc(Cl)cc1Cl returned Beta2AR agonist 5.9, UCH37 inh 1.1, HNF4A DNA FP -0.7, ALR H2O2 inh 4.3 and Ecoli growth 0.695.
For O=c1[nH]c2cnccc2n1-c1ccccc1 the results were Beta2AR agonist -3.1, UCH37 inh 0.1, HNF4A DNA FP 5.3, ALR H2O2 inh -17.9 and Ecoli growth 0.776.
`O=C(NCc1ccccc1)C(c1ccc(O)cc1)N(C(=O)c1cnccn1)c1ccccc1` (stereo unspecified) gave Beta2AR agonist 11.1, rRNA inh HTS 0.1, UCH37 inh 2.1, HNF4A DNA FP -1.7, ALR H2O2 inh 2.0, Ecoli growth 0.694, FGF22 binding inactive, rRNA inh HTS OD600 0.8 and rRNA inh HTS RFP 2.1.
CCCn1nc(C(=O)Nc2cccc(S(=O)(=O)N3CCOCC3)c2)c2ccccc2c1=O was read as rRNA inh HTS -16.4, HNF4A DNA FP 1.1, FGF22 binding inactive, rRNA inh HTS OD600 -17.1 and rRNA inh HTS RFP -0.5.
COc1ccc(-c2cc(C(F)(F)F)nc(N3CCN(C)CC3)n2)cc1OC was read as Beta2AR agonist 3.0, UCH37 inh -9.7, HNF4A DNA FP 1.8 and Ecoli growth 0.68.
CCCNC(=O)c1ccc(CN2CCOCC2)cc1 was read as Beta2AR agonist 1.9, UCH37 inh 0.8, HNF4A DNA FP 2.1, ALR H2O2 inh -29.4 and Ecoli growth 0.716.
Cn1ncc(Br)c1C(=O)NC1CCCC1 was read as Beta2AR agonist 5.9, rRNA inh HTS 4.8, UCH37 inh 5.5, HNF4A DNA FP 0.9, ALR H2O2 inh -2.7, Ecoli growth 0.718, FGF22 binding inactive, rRNA inh HTS OD600 11.8 and rRNA inh HTS RFP 0.6.
CCc1nnc(NC(=O)C2CCC2)s1 was read as Beta2AR agonist 0.2, UCH37 inh 1.5, HNF4A DNA FP -0.2 and Ecoli growth 0.671.
`COc1ccc(-c2c(NC(=O)CC(C)C)n(C)c3ccccc3c2=O)cc1OC` gave Beta2AR agonist -10.6, rRNA inh HTS 5.5, UCH37 inh 7.9, HNF4A DNA FP 3.7, ALR H2O2 inh -1.9, Ecoli growth 0.66, FGF22 binding inactive, rRNA inh HTS OD600 9.2 and rRNA inh HTS RFP 0.2.
COc1cc(NS(=O)(=O)c2ccc(N/C=C(\C#N)c3nc4ccccc4o3)cc2)nc(OC)n1 was read as Beta2AR agonist 3.2, UCH37 inh 4.7, HNF4A DNA FP -4.7 and ALR H2O2 inh 14.3.
For COc1ccc(C(=O)CSc2nnc(-c3ccoc3C)n2CC2CCCO2)cc1 (stereo unspecified) the results were UCH37 inh 3.6, HNF4A DNA FP 0.0, ALR H2O2 inh 30.0 and Ecoli growth 0.74.
Screening N=c1c(C(=O)NCCc2ccccc2)cc2c(=O)n3ccccc3nc2n1CCCN1CCOCC1 returned Beta2AR agonist 29.4, rRNA inh HTS 5.3, UCH37 inh inactive, HNF4A DNA FP -0.8, ALR H2O2 inh -0.9, Ecoli growth 0.677, FGF22 binding inactive, rRNA inh HTS OD600 6.2 and rRNA inh HTS RFP -3.7.
`Cc1ccc(NC(=O)CCC(=O)OCC(=O)c2ccc(Oc3ccc([N+](=O)[O-])cc3)cc2)c(C)c1` gave Beta2AR agonist 11.7, UCH37 inh 2.5, HNF4A DNA FP -6.3, ALR H2O2 inh 9.0 and Ecoli growth 0.594.
For NS(=O)(=O)c1ccc(CCNC2CC(=O)N(CCc3ccccc3)C2=O)cc1 (stereo unspecified) the results were Beta2AR agonist 0.4, UCH37 inh 4.5, HNF4A DNA FP 2.4 and Ecoli growth 0.673.
Screening Cc1ccc(-c2nc(-c3cccnc3)sc2CC(=O)Nc2ccc3nc(C)sc3c2)cc1 returned Beta2AR agonist -13.2, UCH37 inh -0.7, HNF4A DNA FP 3.4, ALR H2O2 inh 44.7 and Ecoli growth 0.697.
Screening COc1ccc(NC(=O)C2CCCN(S(=O)(=O)c3ccc4c(c3)CC(C)N4C(C)=O)C2)cc1 (stereo unspecified) returned Beta2AR agonist -3.8, rRNA inh HTS -11.0, UCH37 inh 2.4, HNF4A DNA FP 1.4, ALR H2O2 inh -3.3, Ecoli growth 0.7, FGF22 binding inactive, rRNA inh HTS OD600 -10.7 and rRNA inh HTS RFP -4.9.

From PubChem
